# TSHR agonist – TSH receptor (human) agonism; P16473; HEK293-CNG-TSHR cells (CNG channel as cAMP sensor), membrane potential dye, cAMP; Potency, µM (series often up to 57.1 µM), inactives show top-dose activation, hits mostly activators; actives 0.48% (n = 73,000); AID 926; active = well fitted activation curve of enough size with the parental cells flat; inconclusive = any curve in the parental cells; inactive = parental cells flat and receptor cells flat or falling; also: potency is read from the fitted curve at half-maximal effect; % of control where 0% means no effect; weak receptor curves with flat parental cells got no call and are not listed
# Target sequence (P16473 whole entry, looked up): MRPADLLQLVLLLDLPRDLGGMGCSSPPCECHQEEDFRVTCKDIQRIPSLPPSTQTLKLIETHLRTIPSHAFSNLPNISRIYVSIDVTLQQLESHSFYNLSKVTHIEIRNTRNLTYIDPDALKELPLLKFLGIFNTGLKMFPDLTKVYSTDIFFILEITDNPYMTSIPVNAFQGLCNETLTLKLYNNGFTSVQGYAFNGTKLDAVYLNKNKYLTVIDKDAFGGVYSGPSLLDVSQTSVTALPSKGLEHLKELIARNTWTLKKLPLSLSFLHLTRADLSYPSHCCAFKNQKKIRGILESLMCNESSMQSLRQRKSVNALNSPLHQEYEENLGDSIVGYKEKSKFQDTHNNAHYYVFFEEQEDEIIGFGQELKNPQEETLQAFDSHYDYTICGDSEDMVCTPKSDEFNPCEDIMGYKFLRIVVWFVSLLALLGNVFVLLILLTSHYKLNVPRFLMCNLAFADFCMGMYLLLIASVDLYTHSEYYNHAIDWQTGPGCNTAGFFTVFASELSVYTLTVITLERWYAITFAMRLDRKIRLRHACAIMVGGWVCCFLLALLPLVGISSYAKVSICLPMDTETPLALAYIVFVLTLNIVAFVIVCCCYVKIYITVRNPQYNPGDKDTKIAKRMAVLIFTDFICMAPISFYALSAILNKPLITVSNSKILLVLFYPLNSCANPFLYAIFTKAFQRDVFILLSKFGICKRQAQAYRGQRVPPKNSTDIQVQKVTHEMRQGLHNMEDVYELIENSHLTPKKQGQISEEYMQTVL
#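 HEK 293 cells stably expressing TSHR and a cAMP-gated CNG channel; parental CNG-only cells as counterscreen. Cells preloaded 60 min with membrane potential dye plus 100 uM RO 20-1724, then compound 30 min; fluorescence read at 590 nm.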
# Resorufin autofl – resorufin region autofluorescence | Compound fluorescence, resorufin region 547/598 nm, buffer; active compounds read high | max dye-equivalent concentration, M | actives 0.04% (n = 59,000); active = above 10 nM dye equivalent; inconclusive = 1 to 10 nM; inactive = 1 nM or less; a few of its hits are not listed in these tables; also: highest value over a series up to 38 µM
#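 Intrinsic fluorescence profiled in the resorufin window (ex 547 nm, em 598 nm) after 15 min at room temperature in pH 8.0 Tris buffer (100 mM); responses normalized against a six-point resorufin standard series as dye-equivalent concentration.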
# AID923 – qHTS Assay for Allosteric/Competitive Inhibitors of Caspase-1: Spectroscopic Profiling in AFC Spectral Region; compound fluorescence, AFC spectral region (405/520 nm); almost no hit is shown here; Potency, µM (doses to about 57.5 µM), for the others: top-dose fluorescence increase, actives largely listed as activators; actives 1.1% (n = 75,000); AID 923, 2007; active = well fitted activation curve with a large enough effect; inconclusive = small, poorly fitted or top-dose-only effect;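 also: potency is read from the fitted curve at half-maximal effect; 0% is about no effect; scaled to a free AFC standard on each plate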
#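 Titrations up to 57 uM read every 20 sec for 3 min (405/520 nm) with 50 nM caspase 1 and 5 uM Ac-WEHD-AFC, pH 7.5 HEPES buffer. Fluorescence-vs-time intercept gave baseline, scaled against on-plate AFC standard.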
# A488 autofl – compound autofluorescence in A488 spectral region. compound autofluorescence, A488 spectral region, dye equivalency; active compounds read high. max dye equivalency, M. actives 0.1% (n = 59,000). AID 591; active = above 10 nM dye equivalent; inconclusive = 1 to 10 nM; inactive = 1 nM or less; about half of its hits are not listed in these tables;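 also: highest value over a series up to 38 µM; compound alone in buffer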
#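 Readout is A488 dye-equivalent concentration, calibrated by a per-plate six-point Alexa 488 series. Compounds in 100 mM Tris buffer pH 8.0 were incubated 15 min at room temperature. Plates were imaged using 480 nm excitation/540 nm emission filters.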
# A647 fluor – compound autofluorescence in A647 spectral region. AID 592. max dye-equivalent concentration, M. Compound fluorescence, A647 channel (570/671 nm), Tris buffer. 59,000 tested, under 10 active; active means above 1 µM dye equivalent; inconclusive means 0.1 to 1 µM; inactive means 0.1 µM or less;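 also: values scaled relative to a standard on each plate; highest value over a series up to 38 µM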
#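 Spectral profiling of library compounds in pH 8.0 Tris: 15 min room-temperature incubation, single ex/em pair (570/671 nm), response normalized to Alexa 647 equivalents.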
# The depositor's hits bear a star; i = inactive; ? = inconclusive; . = no result given; [ ] = dose if it differs, or a comment. A portion of the library; rates above refer to the full screens.
structure	A488 autofl	AID923	Resorufin autofl	A647 fluor	TSHR agonist
CCS(=O)(=O)N1CCC(C(=O)NCCCOC)CC1	i	2.1%	i	1.9e-09	2%
CCCCOc1ccc(CSc2ncn[nH]2)cc1	i	0.6%	i	1e-09	0%
CCOC(=O)c1ccccc1NC(=O)CSc1nnc(Cc2cccn2C)n1-c1ccc(C)cc1	i	0.9%	i	1e-09	?
O=c1c2ccccc2nc2n1CCCCC2	i	1.8%	i	1e-09	-1%
COc1ccc(CCNc2nc(N3CCOCC3)nc(N3CCOCC3)n2)cc1OC	i	-0.1%	i	3.2e-08	3%
COCCn1nnnc1C(c1ccc(O)c(OC)c1)N1CCc2ccccc2C1 (centres undefined)	i	-1.1%	i	4.9e-09	1%
COc1ccccc1OCC(=O)NCCNC(=O)COc1ccccc1OC	.	1.0%	.	.	-5%
Cc1cc(=O)oc(C)c1C(=O)NCCC(C)C	i	-0.9%	i	1.8e-08	5%
Cc1nc2cnc(Oc3cccc(Cl)c3)nc2n(C2CC2)c1=O	i	2.0%	i	1.9e-08	?
O=S(=O)(NCC1CCN(S(=O)(=O)c2ccccc2)CC1)c1ccccc1	i	-0.8%	i	1e-09	-11%
CCCc1[nH]nc2c1C(c1ccc(Br)s1)C(C#N)=C(N)O2 (centres undefined)	i	0.3%	i	1.2e-09	?
COC(=O)c1cc(OC)c(OC)cc1NC(=O)c1ccc(Br)o1	.	5.4%	.	.	13%
COC(=O)C(C)Oc1ccc2c3c(c(=O)oc2c1)CCCCC3 (centres undefined)	i	-1.7%	i	2.9e-09	.
Cc1ccc2c(c1)nnn2C1CCN(S(C)(=O)=O)CC1	i	0.6%	i	2.4e-08	-1%
COCCCN1Cc2cccc(C(=O)O)c2C1=O	.	2.9%	.	.	2%
CCOc1cc2[nH]c(=O)n(CC3CCC(C(=O)NC4CCCCC4)CC3)c(=O)c2cc1OCC (centres undefined)	i	1.0%	i	3.8e-09	1%
CC(CC1C(C#N)=C(N)OC2=C1C(=O)CCC2)c1ccccc1 (centres undefined)	.	-2.2%	.	.	-4%
CCCCNC(=O)c1ccc2c(c1)N(CC)C(=O)CS2	i	-1.3%	i	1.3e-08	18%
CCOc1ccc(C(=O)N2CCCC2C(=O)O)cc1 (centres undefined)	i	-1.2%	i	1e-08	-7%
COC(=O)C1=C(C(=O)c2ccccc2)C(c2ccc(OC)c(OC)c2)Nc2nnnn21 (centres undefined)	i	1.7%	i	1e-09	12%
c1ccc2nc3[nH]cnc3nc2c1	i	-0.4%	i	1e-09	-4%[11.4 µM]
Cc1nn(-c2ccccc2)c(Cl)c1C1C(C#N)=C(N)OC2=C1C(=O)CCC2 (centres undefined)	i	0.9%	i	1e-09	11%
CCCCCO	.	1.4%	.	.	-3%
C/C(CC1(O)/C(=N/O)CCc2nonc21)=N\O (centres undefined)	.	4.7%	.	.	5%
CCOC(=O)Nc1ccc(S(=O)(=O)N2CCOCC2)cc1	i	0.2%	i	1.6e-08	-1%
C=Cc1ccccc1C=C	.	-1.3%	.	.	-9%
O=C(NC1CCCc2ccccc21)C1CCN(S(=O)(=O)c2cccc3nonc23)CC1 (centres undefined)	i	1.9%	i	1e-09	-4%
CCOc1ccc2[nH]c(=O)c(CN(CCN3CCOCC3)Cc3nnnn3C(C)(C)CC)cc2c1	i	5.5%	i	3.6e-08	2%
CCOc1ccc(N(CC)S(=O)(=O)c2ccc3c(c2)oc(=O)n3C)cc1	i	-0.8%	i	3.8e-08	-3%
CN1CCN(c2ncc3nc(CCc4ccccc4)c(=O)n(CCC#N)c3n2)CC1	i	20%	i	1.9e-08	?
COc1cc(CNC2CCCCCC2)cc(OC)c1O	.	4.3%	.	.	4%
CSc1ccc2[nH]c(=O)cc(C)c2c1	i	1.3%	i	1e-09	?
Cc1nc2oc3c(NCc4ccccn4)ncnc3c2c2c1COC(C)(C)C2	i	0.3%	i	1.6e-08	-4%
CCOC(=O)N1CCN(C(=O)CN(C)S(=O)(=O)c2ccc(OC)c(OC)c2)CC1	i	-1.8%	i	1.9e-08	?
COC(=O)c1cc(Br)c(=O)n(CCN2CCCCC2)c1	i	2.0%	i	1.3e-09	6%
CCN(CC)C(=O)CN(c1ccc(F)c(Cl)c1)S(C)(=O)=O	i	1.0%	i	8.1e-09	7%
COc1ccc(Oc2ncc3ncc(=O)n(CCc4ccccc4)c3n2)cc1	i	-1.9%	i	1.6e-08	?
COC(=O)C(NC(=O)C(NC(=O)c1ccccc1)C(C)C)C(C)C (centres undefined)	i	-2.5%	i	9.2e-09	-5%
CCOC(=O)N1CCC(N2Cc3cccc(C(=O)Nc4cc(F)ccc4F)c3C2=O)CC1	.	0.0%	.	.	0%
C=CCc1cccc(C2C(C)CCC3C(=O)N4C(Cc5c([nH]c6ccccc56)C4c4cc(OC)c(OC)c(OC)c4)C(=O)N32)c1 (centres undefined)	.	1.4%[11.5 µM]	.	.	-1%[11.4 µM]
C=CCn1c(SCC(=O)Nc2ccc3c(c2)CCC3)nnc1-c1cccs1	i	2.5%	i	1.4e-08	?
O=C(COC(=O)CCC(=O)c1cccs1)NCc1ccco1	i	-3.2%	i	1e-09	10%
COc1ccc(CCCc2nnc(SCC(=O)Nc3nccs3)n2C)cc1C	i	-2.5%	i	1.6e-09	9%
CCN(CC)c1cc(Oc2ccccc2)ncn1	i	1.1%	i	1e-09	6%
O=C(NCc1cccs1)C1CCN(S(=O)(=O)c2ccc(Br)s2)CC1	i	0.5%	i	3.3e-08	?
Cc1nc2c([nH]1)C1(CCN(Cc3ccccc3)CC1)C(C#N)=C(N)O2	i	11%	i	2.4e-09	12%
CCC(=O)Nc1ccc(F)c(Cl)c1	.	-0.5%	.	.	?
O=C(NCCc1ccccc1)c1nc2c(nnn2Cc2ccccc2Cl)c(=O)[nH]1	i	-1.0%	i	1e-09	?
O=S(=O)(c1ccccc1)N1CCN(c2ncnc3sc(-c4ccccc4)cc23)CC1	i	0.3%	i	1e-09	3%
NS(=O)(=O)c1ccc(S(=O)(=O)N(Cc2ccccc2F)CC2CCCO2)cc1 (centres undefined)	i	3.6%	i	7e-08	-2%

# Some of the entries above, set out differently:
O=C(NCc1cccs1)C1CCN(S(=O)(=O)c2ccc(Br)s2)CC1
  A488 autofl: i | AID923: 0.5% | Resorufin autofl: i | A647 fluor: 3.3e-08 | TSHR agonist: ?

O=S(=O)(c1ccccc1)N1CCN(c2ncnc3sc(-c4ccccc4)cc23)CC1
  A488 autofl: i | AID923: 0.3% | Resorufin autofl: i | A647 fluor: 1e-09 | TSHR agonist: 3%

NS(=O)(=O)c1ccc(S(=O)(=O)N(Cc2ccccc2F)CC2CCCO2)cc1 (centres undefined)
  A488 autofl: i | AID923: 3.6% | Resorufin autofl: i | A647 fluor: 7e-08 | TSHR agonist: -2%

O=C(COC(=O)CCC(=O)c1cccs1)NCc1ccco1
  A488 autofl: i | AID923: -3.2% | Resorufin autofl: i | A647 fluor: 1e-09 | TSHR agonist: 10%

# (listing goes on)
structure	A488 autofl	AID923	Resorufin autofl	A647 fluor	TSHR agonist
CCN(CC)S(=O)(=O)c1ccc2oc(C(=O)Nc3ccc(OC)cc3OC)c(C)c2c1	i	0.0%	i	2.9e-08	18%
O=C(NC1CCCCC1)C1c2ccccc2C(=O)N1Cc1ccco1 (centres undefined)	i	-0.1%	i	4.4e-09	?
C[C@H](C(=O)C=[N+]=[N-])N1C(=O)c2ccccc2C1=O	i	-1.4%	i	1e-09	-12%
Cc1ccc(N(CC(=O)Nc2ccc(C)cn2)S(=O)(=O)c2c(C)nn(C)c2C)cc1	i	-0.8%	i	1e-09	12%
Cc1c(NC(=O)CN2C(=O)c3ccccc3S2(=O)=O)c(=O)n(-c2ccccc2)n1C	i	0.2%	i	1.4e-09	0%
COc1ccc(C)cc1NS(=O)(=O)c1cccc2cccnc12	.	-0.9%	.	.	?
Nc1c(S(=O)(=O)O)cc(S(=O)(=O)O)c2ccc(N=Nc3ccccc3)c(O)c12	i	-1.1%[11.5 µM]	i	1.3e-08	2%[11.4 µM]
Cc1cc(NC(=O)CCC(=O)N(CCc2ccccc2)C(C(=O)NC2CCCC2)c2ccco2)no1 (centres undefined)	i	-1.1%	i	1e-09	28%
O[C@@H]1CC[C@H]2Cc3ccccc3N=C21	i	.	i	4.4e-09	-3%
Cc1cc(C)c(C#N)c(N2CCCC2)n1	i	-0.1%	i	1e-09	11%
COc1ccc(-n2c(=O)c(-c3cccc(F)c3)nc3cncnc32)cc1	i	2.4%	i	1e-09	?
CCCCN(C)C(=O)c1c[nH]c2ccc(S(=O)(=O)N3CCOCC3)cc2c1=O	.	-0.5%	.	.	?
COc1cc(C2=NOC(C(=O)N3CCCc4ccccc43)C2)cc(OC)c1OC (centres undefined)	i	-1.2%	i	2.5e-08	?
COc1ccccc1N1CCN(C(=O)CSc2nc(-c3ccco3)cc(C(F)(F)F)n2)CC1	i	0.1%	i	5.5e-08	-6%
CC(C)(O)/C=C1/Oc2ccccc2C1N1CCCCC1 (centres undefined)	i	-0.4%	i	1e-09	?
C/C=C/CSc1nc2c(c(=O)[nH]c(=O)n2C)n1CCC	i	-0.9%	i	2.6e-08	2%
CCc1ccc(NC(=O)CSC2=C(C#N)C(c3ccc4c(c3)OCO4)CC(=O)N2)cc1 (centres undefined)	i	.	i	1e-09	.
N=c1c(C(=O)NCc2ccccc2)cc2c(=O)n3ccccc3nc2n1Cc1ccco1	i	.	i	2.3e-09	.
Cc1ccc(-n2ncc3c(=O)n(CC(=O)N4CCCCCC4)cnc32)cc1	i	-1.1%	i	1.5e-08	4%[11.4 µM]
Cn1c2ccccc2c2c(C(=O)N3CCN(c4ccc(F)cc4)CC3)cn(C3CCCC3)c(=O)c21	i	-2.1%	i	2.8e-09	20%
O=C(Nc1ccc2c(c1)OCO2)C1CC(c2ccccc2Cl)=NO1 (centres undefined)	i	1.3%	i	1.4e-08	8%
CC(Oc1ccccc1)C(=O)N1CCCc2ccccc21 (centres undefined)	.	1.6%	.	.	14%[11.4 µM]
C=CCOC(=O)COc1ccc2c(C)c(C)c(=O)oc2c1	.	-1.7%	.	.	1%
CCOC(=O)Cc1nnc(NC(=O)c2ncn[nH]2)s1	i	-1.7%	i	2.7e-09	3%
CCc1c(O)nc(SCC(N)=O)n(-c2ccccc2F)c1=O	i	0.7%	i	1e-09	.
Cc1c(C)[n+](=O)c2c(n1[O-])CCCCC2	i	1.7%	i	4.5e-08	?
COc1ccccc1-n1cnc2cc(NC(C)=O)ccc21	i	-0.1%	i	8e-09	4%
Cc1ccc(Cl)c(OCC(=O)Nc2ccc3c(c2)OCCO3)c1	i	-1.7%	i	1.2e-08	15%
Cc1ccc2cc3c(NC(=O)c4ccco4)nn(CC(C)C)c3nc2c1	i	-0.7%	i	1e-09	.
O=C(CC(C(=O)O)C1CCCO1)NCCc1ccc2c(c1)OCO2 (centres undefined)	i	0.5%	i	1.8e-09	?
Cc1nc2scc(-c3cccs3)c2c(=O)o1	.	0.6%	.	.	2%
COc1ccc(CNC(=O)NC2CCCCC2)cc1	i	-0.1%	i	7.4e-08	-3%
CCOc1ccc(C(=O)NCC(=O)OC(C)C(=O)NCc2ccco2)cc1OCC (centres undefined)	i	0.5%	i	1e-09	-2%
O=C1CC(c2ccc(S(=O)(=O)NCc3ccncc3)cc2)CN1 (centres undefined)	.	-0.6%	.	.	1%
O=C(NCC(c1cccnc1)N1CCN(c2ccccc2F)CC1)C1CCCCC1 (centres undefined)	i	0.1%	i	2.2e-09	7%

# Screening results as filed in PubChem.
